# RGS16-Gao HTS: modulators of RGS16 binding to Galphao, primary screen, biochemical, human proteins, multiplexed bead flow cytometry | Regulator of G-protein signaling 16 (Homo sapiens) + Guanine nucleotide-binding protein … | bead-based flow cytometry RGS16-Galphao binding, fluorescence; actives lie on both sides | binding response (% of control), % at 10 µM | 220,000 tested, 0.38% active | AID 1441, 2008;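 active means below 25% or above 175%, edge rows of some plates excepted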;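 further: Galphao activated by GDP with aluminum fluoride before binding; 100% = wells without compound and 0% = beads without RGS; some results beyond the cut were filed as inactive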
# Target sequence (O15492 whole entry, looked up): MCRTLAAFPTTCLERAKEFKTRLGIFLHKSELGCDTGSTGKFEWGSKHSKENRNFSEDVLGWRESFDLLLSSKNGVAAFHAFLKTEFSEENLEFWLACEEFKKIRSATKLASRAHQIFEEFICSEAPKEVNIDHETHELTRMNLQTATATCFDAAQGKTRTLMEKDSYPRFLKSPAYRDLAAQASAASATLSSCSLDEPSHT
# Target sequence (P09471 whole entry, looked up): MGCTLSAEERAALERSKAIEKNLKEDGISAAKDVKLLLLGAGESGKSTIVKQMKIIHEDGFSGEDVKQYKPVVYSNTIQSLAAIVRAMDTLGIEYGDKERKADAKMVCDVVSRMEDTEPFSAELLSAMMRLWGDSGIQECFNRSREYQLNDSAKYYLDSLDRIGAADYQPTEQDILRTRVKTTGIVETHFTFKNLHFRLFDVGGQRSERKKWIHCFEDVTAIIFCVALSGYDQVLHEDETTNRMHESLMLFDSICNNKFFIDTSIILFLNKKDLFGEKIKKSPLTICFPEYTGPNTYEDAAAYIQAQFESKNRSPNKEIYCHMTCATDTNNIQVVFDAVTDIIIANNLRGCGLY
# HSV replic up: enhancers of HSV replication in host cells, fold increase, host cell viability. HSV replication augmentation in cells. 220,000 tested, 0.005% active. maximum fold increase;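 active means peak rise of 1.5-fold or more in the series; inconclusive means self-fluorescent or not available for retest; tested in PC3 cells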;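 further: first round at 10 µM; read as green reporter fluorescence; hits show the peak of a series up to 25 µM; 1 = signal of infected wells without compound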
# INS promoter inh: inhibitors of insulin promoter-driven GFP, primary screen, imaging, TRM-6 cells (human fetal islet line), eGFP reporter, cell count. reporter expression induced with tamoxifen. inhibition, % at 2 µM. 130,000 tested, 0.9% active. AID 1273, 2008;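 active means inhibition above the mean plus 3 SD, with well images judged a real hit on visual review, cut at about 60% in these data, passing the limit was not always enough; inconclusive means inhibition over the cutoff but images rejected on review; inactive means inhibition not above the cutoff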
# GALR2 ag: GALR2 receptor agonists, primary screen, cell-based. Galanin receptor type 2 (Homo sapiens), O43603. GALR2-expressing cells, agonist activation read-out. activation, %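 (tested at 5 µM)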. 140,000 tested, 0.48% active. AID 803, 2007;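 active means above mean plus 3 SD of all compounds, about 5% in these data, not always enough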;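 further: 0% = vehicle buffer wells and 100% = reference agonist at full effect; tested in CHO reporter cells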
# Target sequence (O43603 whole entry, looked up): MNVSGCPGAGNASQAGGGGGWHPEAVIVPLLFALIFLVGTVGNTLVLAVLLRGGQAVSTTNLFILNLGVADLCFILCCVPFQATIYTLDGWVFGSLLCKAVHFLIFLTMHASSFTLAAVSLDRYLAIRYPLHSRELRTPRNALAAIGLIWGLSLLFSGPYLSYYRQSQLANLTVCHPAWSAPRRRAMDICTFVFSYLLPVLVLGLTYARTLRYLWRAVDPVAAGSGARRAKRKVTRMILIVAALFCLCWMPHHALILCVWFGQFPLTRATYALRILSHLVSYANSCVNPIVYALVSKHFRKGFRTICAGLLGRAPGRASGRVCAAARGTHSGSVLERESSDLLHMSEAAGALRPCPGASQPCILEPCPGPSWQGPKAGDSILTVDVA
# PKD1 inh: inhibitors of human PKD1 kinase, biochemical, fluorescence polarization. PKD1 kinase fluorescence polarization assay. 200,000 tested, 0.056% active. Serine/threonine-protein kinase D1 (Homo sapiens), Q15139. inhibition, %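 (about 10 µM by stock and volumes)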;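 active means inhibition of 50% or more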;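 further: controls were vehicle for no effect and a reference inhibitor for full effect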
# INS promoter inh cell count: also measured in INS promoter inh; calls as there; normalized cell count, %; measured here: cell count, toxicity; reference of the scale not given here;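 cells exposed to compound for 48 h; stained nuclei by imaging scaled within each plate; lower means fewer cells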
# HSV replic up primary fold: also measured in HSV replic up; calls as there; fold increase; compound at 10 µM; measured here: primary screen fold increase 10 uM; tested in PC3 cells;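 GFP signal in the first replicate; 1 = infected wells without compound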
# * marks the source's active call; other numbers are inactive results; i = inactive; ? = inconclusive; nt = not tested or not shown; & = joins results of further samples.
Molecule	RGS16-Gao HTS	HSV replic up	HSV replic up primary fold	INS promoter inh	INS promoter inh cell count	GALR2 ag	PKD1 inh
O=[N+]([O-])c1ccccc1-c1ccc(C(=S)N2CCCC2)o1	86	i	1.1	nt	nt	nt	-1
N#CNC(=Nc1ccccc1F)SCc1ccc(C(=O)O)cc1	108	i	0.83	nt	nt	nt	-5
COc1ccc(N=c2oc3ccc(OC)cc3cc2-c2nc3ccccc3[nH]2)cc1	103	i	0.57	8	150	-0.2	4
COc1cc2cc(C(N)=O)c(N)nc2cc1OC	100	nt	nt	-9	128	0.2	-8
O=S(=O)(Cc1ccc(Cl)cc1)N1CCCC1	103	i	1.1	21	87	-0.3	3
Clc1ccccc1-c1nnc(CNC2CC2)o1	97	i	1	nt	nt	nt	-1
CC1=CC(c2ccccc2)=Nc2ccc(C)cc2N1	104	i	0.89	50	116	-0.6	-3
Cc1cccc2c(-c3ccccc3)cc(=O)[nH]c12	104	i	0.93	65	120	-0.5	1
CCCCCOC(=O)CC(C(=O)OCCCCC)N1CCCCC1 (stereo not given)	100	i	1	60	117	-2.0	-13
COc1ccc(C)cc1N(CC(=O)Nc1ccc2c(c1)OCCO2)S(C)(=O)=O	97	i	0.9	nt	nt	nt	-1
O=c1oc(-c2cccs2)nc2c1cnn2-c1ccccc1	99	i	0.99	nt	nt	-0.3	9
Cc1cc(NCc2cccnc2)no1	101	i	1	nt	nt	nt	nt
O=[N+]([O-])c1ccc(N/N=C\c2ccccc2OCc2ccccc2)cc1	46	i	1	-27	72	2.5	-4
CCOC(=O)NC(=O)c1cn(CCN(C)C)c(=O)[nH]c1=O	98	i	0.92	-7	56	-0.7	-5
Cc1ccc(Oc2ccc(C(=O)NC3CCSC3=O)cn2)cc1 (stereo not given)	104	i	0.96	17	132	-1.2	1
COc1cc(OC)cc(OCC(O)Cn2cnc3cc(C)c(C)cc32)c1 (stereo not given)	101	i	0.84	nt	nt	-2.4	-6
Cc1cccc(OCC(=O)N/N=C/c2ccc3c(c2)OCO3)c1	106	i	0.97	nt	nt	nt	-4
CCOC(=O)C1CCCN(CCCc2ccccc2)C1 (stereo not given)	90&113	i	0.91&1.2	33	129	-4.5&-1.7	5&-1
CCOC(=O)C(C(=O)Nc1ccccc1C)C1CCCCC1 (stereo not given)	112	i	0.82	-39	125	-0.4	19
Cc1cccc(OC(=O)NCCOC(=O)N(O)c2ccc(Cl)cc2)c1	92	i	1.1	-12	142	-1.2	1
CCOc1ccc(N(C(=O)Cn2nnc3ccccc32)C(C(=O)NC(C)(C)CC)c2cccn2C)cc1 (stereo not given)	53	i	1	-462	77	-0.6	4
Cc1ccc(NS(=O)(=O)c2ccc3c(c2)CCC(=O)N3)cc1C	123	i	1.1	nt	nt	nt	-10
CCOc1ccc(S(=O)(=O)Nc2ccccc2SC)c2cccnc12	98	i	0.9	-71	78	-0.9	-5
Cc1nn(Cc2ccccc2)c(Cl)c1/C=C1\NC(=S)NC1=O	105	i	0.76	nt	nt	nt	0

# Shown field by field: four of the compounds above.
CCOc1ccc(N(C(=O)Cn2nnc3ccccc32)C(C(=O)NC(C)(C)CC)c2cccn2C)cc1 (stereo not given)
  RGS16-Gao HTS: 53
  HSV replic up: i
  HSV replic up primary fold: 1
  INS promoter inh: -462
  INS promoter inh cell count: 77
  GALR2 ag: -0.6
  PKD1 inh: 4
Cc1ccc(NS(=O)(=O)c2ccc3c(c2)CCC(=O)N3)cc1C
  RGS16-Gao HTS: 123
  HSV replic up: i
  HSV replic up primary fold: 1.1
  INS promoter inh: nt
  INS promoter inh cell count: nt
  GALR2 ag: nt
  PKD1 inh: -10
CCOc1ccc(S(=O)(=O)Nc2ccccc2SC)c2cccnc12
  RGS16-Gao HTS: 98
  HSV replic up: i
  HSV replic up primary fold: 0.9
  INS promoter inh: -71
  INS promoter inh cell count: 78
  GALR2 ag: -0.9
  PKD1 inh: -5
Cc1nn(Cc2ccccc2)c(Cl)c1/C=C1\NC(=S)NC1=O
  RGS16-Gao HTS: 105
  HSV replic up: i
  HSV replic up primary fold: 0.76
  INS promoter inh: nt
  INS promoter inh cell count: nt
  GALR2 ag: nt
  PKD1 inh: 0

# The listing continues.
Molecule	RGS16-Gao HTS	HSV replic up	HSV replic up primary fold	INS promoter inh	INS promoter inh cell count	GALR2 ag	PKD1 inh
CC(C)NC(=O)C(=O)NCc1ccccn1	100	i	0.97	nt	nt	nt	nt
CN1c2ccccc2C(=O)/C(=C\Nc2ncccn2)S1(=O)=O	100	i	0.96	nt	nt	nt	nt
CC1=CC(C)(C)N(S(=O)(=O)c2ccc(F)cc2)c2ccc(C)cc21	104	nt	nt	-7	93	-1.8	7
COc1ccc(C(=O)NNC(=O)CCn2nnc(-c3ccc(C)cc3)n2)cc1OC	113	i	0.85	0	107	nt	2
Cc1ccc(Cn2c(C)cc3c(c2=O)C(c2cccs2)C(C#N)=C(N)O3)cc1 (stereo not given)	97	i	1	-14	124	-0.7	3
N#C/C(=N\Nc1ccc(F)cc1)C(=O)C1CC1	101	i	1.1	nt	nt	nt	nt
CCOc1ccc(-c2noc(CCC(=O)O)n2)cc1	99	i	0.97	nt	nt	-0.9	0
Cc1cccc(CSc2nnc(NC(=O)CSc3nnc(C)s3)s2)c1	99	i	1.1	nt	nt	-2.5	-2
CC(OC(=O)c1ccncc1)C(=O)Nc1cc(S(=O)(=O)N2CCCCC2)ccc1Cl (stereo not given)	103	i	0.97	6	149	-0.4	7
COc1cccc(C(=O)NCC(=O)n2nc(C)cc2C)c1	69	i	0.86	-9	96	-0.1	-17
Cn1c(=S)n(/N=C/c2cccs2)c2ccccc21	102	i	1	nt	nt	nt	nt
Cc1cc(C(=O)COC(=O)c2ccc(O)cc2)c(C)n1CC1COc2ccccc2O1 (stereo not given)	98	i	0.89	0	109	0.3	-9
C=CCNC(=O)CSCc1ccc(Br)cc1	104	i	0.98	nt	nt	nt	-5
O=C(Nc1ccc(Br)cn1)c1ccc2nccnc2c1	nt	i	0.93	-91	98	-2.9	1
Cc1ccc2nc(/C=C/c3cccc(F)c3)ccc2c1	107	i	1	-17	126	-0.3	-8
Cc1csc(NC(=O)C2CCN(S(=O)(=O)c3ccccc3F)CC2)n1	106	i	0.68	-111	84	nt	3
Clc1nc(-c2ccccn2)nc2scc(-c3ccccc3)c12	102	i	0.81	-33	89	-2.0	-9
COc1ccc(-c2cc(-c3ccc(N)cc3)nc(N)c2C#N)cc1OC	99	i	0.88	nt	nt	nt	-7
COc1ccc2c(c1)c(=O)c(C(=O)c1ccc(F)cc1)cn2CC(=O)Nc1ccc(F)cc1	102	nt	nt	27	121	0.5	3
Cc1ccc(C(=O)NCCSC(C)(C)C)cc1	102	i	0.94	3	89	-4.5	-10
O=[N+]([O-])c1cc([N+](=O)[O-])c2cccnc2c1O	98	i	1.1	nt	nt	nt	nt
CCN(CC)c1ccc2ccc(=O)oc2c1	102	i	1	nt	nt	nt	-3
Cc1ccc(C(=O)Nc2cccc(S(=O)(=O)N3CCOCC3)c2)cc1[N+](=O)[O-]	96	i	0.99	nt	nt	nt	nt
COCc1cc(C)nc(SCC(=O)Nc2cc3c(cc2C#N)OCO3)c1C#N	93	i	1	21	141	-0.9	-5
CCCN(CCC)S(=O)(=O)c1ccc(NC(=O)COc2ccccc2)cc1	114	i	0.78	17	76	-1.4	2
Cc1cc(S(=O)(=O)N2CCCC2)ccc1OCC(=O)NCc1ccco1	99	i	0.77	nt	nt	-1.5	-5
O=C(NC1CCCCC1)N1CCN(c2ncccn2)CC1	85	i	1.1	0	132	0.0	-2
Cc1nnc(NC(=O)c2c(-c3ccccc3)noc2C)s1	99	i	1	23	82	-0.9	-7
Cn1c(SCC(=O)Nc2ccc(NC(=O)c3cccs3)cc2)nnc1-c1ccncc1	105	i	1	13	67	0.1	-6
COc1ccc(CCC(=O)NCc2cn3ccc(C)cc3n2)cc1	96	i	1	nt	nt	nt	-2
O=S(=O)(NC1CCc2ccccc21)c1ccc(S(=O)(=O)N2CCCC2)cc1 (stereo not given)	103	i	0.82	-17	62	-0.7	-2
COc1ccc(OC)c(/C=N/n2c(-c3n[nH]c4c3CCC4)n[nH]c2=S)c1	99	i	1	nt	nt	nt	nt
Cc1nc(-c2ccc(C(=O)NCCO)cc2)cs1	101	i	1	30	134	nt	0
O=C(CSc1nnc2ccccn12)NNC(=O)c1ccccc1	101	i	0.93	56	48	nt	-4
CC1CCc2nn(CC(=O)NC3CCCC3)cc2C1 (stereo not given)	101	i	1.1	nt	nt	-3.5	-10
O=c1cc(O)n(-c2ccc(F)cc2)c(=S)[nH]1	93	i	0.89	64	46	-1.4	13
CCOc1ccc(C(=S)N2CCOCC2)cc1	106	i	0.89	-5	100	-2.0	2
O=C(CSc1nnc(CNC(=O)c2cccs2)o1)Nc1ccc2c(c1)OCO2	95	i	0.99	-32	121	-1.3	-5
CCCCN(CC)CCCNC(=S)Nc1ccc2nc(N3CCN(C)CC3)cc(C)c2c1	98	i	0.77	nt	nt	nt	-2
Cn1c(=O)c(NC2CCCCC2)c2c3c(cccc31)C(=O)c1ccccc1-2	94	?	nt	i	100	nt	18
COC(=O)c1ccccc1NS(=O)(=O)c1cn(C)c(=O)n(C)c1=O	106	i	0.84	nt	nt	-4.3	-8
COc1cc(OC)c(/C=N/n2c(C)nnc2C)c(OC)c1	111	nt	nt	33	148	-0.1	2
Cc1ccc(C)c(CSCC(=O)NCc2cccs2)c1	102	nt	nt	-7	122	nt	0
O=C(Nc1ccccc1)Nc1snnc1C(=O)Nc1cccc(O)c1	12*	i	0.93	18	98	nt	-5
O=c1[nH]c(CSc2ncc(C(F)(F)F)cc2Cl)nc2cc(C(F)(F)F)ccc12	96	i	1	nt	nt	nt	nt
O=C(CN1CCCCCC1)N1c2ccccc2C=Cc2ccccc21	103	i	0.86	-279	88	-2.1	1
Nc1nc(CSc2nnc(-c3cccc(F)c3)n2-c2ccccc2)nc(N2CCOCC2)n1	100	i	1	-162	50	-0.8	-4
Cc1ccc(NC(=O)CN(C)C(=O)c2cc3ccccc3o2)cc1	102	i	1	nt	nt	nt	-7
CCOc1c(OC(C)=O)ccc(/C=C2\N=C(SCC)SC2=O)c1[N+](=O)[O-]	91	i	0.98	-19	98	-2.7	4
C/C(=N\N=C1\NC(=O)C(CC(=O)NCc2ccccc2)S1)C(C)C (stereo not given)	101	i	0.96	nt	nt	nt	-4
Cc1cc(C(=O)CN2C(=O)C(=O)N(Cc3ccccc3)C2=O)c(C)n1CC1COc2ccccc2O1 (stereo not given)	102	i	1	0	161	nt	-3

# 3 structures out of the list, arranged by SMILES length, lowest first.
Molecule	RGS16-Gao HTS	HSV replic up	HSV replic up primary fold	INS promoter inh	INS promoter inh cell count	GALR2 ag	PKD1 inh
O=C(Nc1ccccc1)Nc1snnc1C(=O)Nc1cccc(O)c1	12*	i	0.93	18	98	nt	-5
Nc1nc(CSc2nnc(-c3cccc(F)c3)n2-c2ccccc2)nc(N2CCOCC2)n1	100	i	1	-162	50	-0.8	-4
Cc1cc(C(=O)CN2C(=O)C(=O)N(Cc3ccccc3)C2=O)c(C)n1CC1COc2ccccc2O1 (stereo not given)	102	i	1	0	161	nt	-3
